Hsc70 ATP site: small molecules displacing fluorescent ligand from Hsc70 – biochemical, fluorescence polarization, primary screen (AID 568). Hsc70 fluorescence polarization, probe displacement; higher % means a stronger effect; strong numbers were not always called active. one-dose displacement, % at 20 µM; IC50 in µM for titrated hits. 83,000 tested, under 10 active;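 active = displacement above 50% without optical interference and an IC50 on retest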;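 also: ATPase domain with a fluorescein-tagged ATP probe; 0% = vehicle and 100% = excess ADP; read after one hour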
MT1-MMP promoter: MT1-MMP gene expression reporter suppression – cell-based, luciferase reporter, luminescence (AID 618); MT1-MMP promoter luciferase reporter cells, luminescence; 87,000 compounds, 0.62% hits; calls from a first round at 10 µM; hits with a dose series show EC50 in µM;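 active = over half of the reporter light lost at 10 µM or EC50 under 50 µM; inactive = the rest and hits that failed the dose series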;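 also: actives suppress MT1-MMP promoter-driven transcription so potencies describe inhibitors; HT1080 fibrosarcoma cells; overnight exposure; toxic or luciferase-blocking compounds were not removed from the actives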
WNV NS2B-NS3 inh: blocks West Nile virus NS2B-NS3 protease activity | 65,000 compounds, 0.18% hits | z-score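 (tested at a level between 10 and 100 µM)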 | WNV NS2B-NS3 protease, fluorogenic substrate Ex360/Em465; stronger effect = lower value | AID 577;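 active = z-score at -3 or under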;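 also: score is relative to mean and spread of the compound wells of a plate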
Target sequence (P06935 1371-1501 limits assumed): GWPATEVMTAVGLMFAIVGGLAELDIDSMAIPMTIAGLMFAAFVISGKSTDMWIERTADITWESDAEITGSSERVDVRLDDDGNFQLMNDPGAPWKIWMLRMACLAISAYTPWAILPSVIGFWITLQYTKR
Target sequence (P06935 1502-1679 limits assumed): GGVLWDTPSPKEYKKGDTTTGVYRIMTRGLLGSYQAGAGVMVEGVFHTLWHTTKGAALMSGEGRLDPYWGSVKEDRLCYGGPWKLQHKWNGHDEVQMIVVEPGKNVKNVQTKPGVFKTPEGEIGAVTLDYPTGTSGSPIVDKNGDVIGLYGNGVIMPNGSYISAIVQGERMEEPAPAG
* = called active by the depositor; i = inactive; . = no result given. The list is partial; rates above refer to the full screens.

Start of the data: the first two compounds, to show the layout:
| cpd | canonical_smiles | Hsc70 ATP site | MT1-MMP promoter | WNV NS2B-NS3 inh |
| --- | --- | --- | --- | --- |
| 1 | COc1ccc(C(=O)c2ccccc2)c(O)c1 | 2.7% | i | 0.16 |
| 2 | CCCC(=O)O[C@]1(C(=O)CCl)[C@@H](C)C[C@H]2[C@@H]3CCC4=CC(=O)C=C[C@]4(C)[C@@]3(F)C(=O)C[C@@]21C | 8.7% | i | 0.07 |

The list itself (from the top)
| cpd | canonical_smiles | Hsc70 ATP site | MT1-MMP promoter | WNV NS2B-NS3 inh |
| --- | --- | --- | --- | --- |
| 1 | COc1ccc(C(=O)c2ccccc2)c(O)c1 | 2.7% | i | 0.16 |
| 2 | CCCC(=O)O[C@]1(C(=O)CCl)[C@@H](C)C[C@H]2[C@@H]3CCC4=CC(=O)C=C[C@]4(C)[C@@]3(F)C(=O)C[C@@]21C | 8.7% | i | 0.07 |
| 3 | CCCOc1ccc2nc(NC(=O)OC)[nH]c2c1 | 0.1% | i | 0.21 |
| 4 | N=c1nc(N2CCCCC2)cc(N)n1O | -2.8% | i | -0.06 |
| 5 | CCN(CCCCOC(=O)c1ccc(OC)c(OC)c1)C(C)Cc1ccc(OC)cc1 (stereo not drawn) | 2.0% | i | 0.37 |
| 6 | CCCCCCCCCCCCCCCC(O)C(N)CO (stereo not drawn) | -114% | i | -0.59 |
| 7 | CCCC(=O)O[C@]1(C(=O)COC(C)=O)CC[C@H]2[C@@H]3C[C@H](F)C4=CC(=O)C=C[C@]4(C)[C@@]3(F)[C@@H](O)C[C@@]21C | 0.1% | i | -0.03 |
| 8 | CC(=O)Oc1ccc2c(C)cc(=O)oc2c1 | -6.4% | i | . |
| 9 | CC1(C)O[C@@H]2C[C@H]3[C@@H]4C[C@H](F)C5=CC(=O)C=C[C@]5(C)[C@@]4(F)[C@@H](O)C[C@]3(C)[C@]2(C(=O)CO)O1 | -2.8% | i | -0.0082 |
| 10 | COc1cc(C2Oc3cc(C4Oc5cc(O)cc(O)c5C(=O)C4O)ccc3OC2CO)ccc1O (stereo not drawn) | -0.9% | i | 0.77 |
| 11 | CCCCN(CCCC)CCCOC(=O)c1ccc(N)cc1 | 3.0% | i | -0.09 |

Compound profiles, as listed above:
CCCCCCCCCCCCCCCC(O)C(N)CO (stereo not drawn) is listed as Hsc70 ATP site = -114%; MT1-MMP promoter = i; WNV NS2B-NS3 inh = -0.59
COc1ccc(C(=O)c2ccccc2)c(O)c1 is listed as Hsc70 ATP site = 2.7%; MT1-MMP promoter = i; WNV NS2B-NS3 inh = 0.16
